VDR inhibitor: inhibitors of human vitamin D receptor | P11473 | VDR-SRC2-3 peptide fluorescence polarization, 2 h | Potency, µM, inactives show max response, negative = inhibition, actives largely listed as inhibitors | actives 0.93% (n = 400,000) | AID 504847; active means well fitted inhibition curve with a large enough effect; inconclusive means small, poorly fitted or top-dose-only effect, or another doubt; inactive means no such curve, though single readings can be large or run the other way; further: series mostly up to about 120 µM
Target sequence (P11473 whole entry, looked up): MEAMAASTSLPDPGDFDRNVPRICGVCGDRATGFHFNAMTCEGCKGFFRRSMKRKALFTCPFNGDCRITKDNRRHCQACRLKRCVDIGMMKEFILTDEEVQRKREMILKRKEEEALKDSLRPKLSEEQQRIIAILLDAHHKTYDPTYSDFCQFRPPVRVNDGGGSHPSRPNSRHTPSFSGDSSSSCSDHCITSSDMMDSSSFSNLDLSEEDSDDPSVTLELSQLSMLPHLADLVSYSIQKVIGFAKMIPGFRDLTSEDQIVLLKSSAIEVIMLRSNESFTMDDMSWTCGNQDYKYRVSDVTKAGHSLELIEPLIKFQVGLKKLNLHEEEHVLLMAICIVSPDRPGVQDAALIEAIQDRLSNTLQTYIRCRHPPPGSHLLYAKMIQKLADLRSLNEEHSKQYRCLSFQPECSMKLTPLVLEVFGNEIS
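After 23 nl compound addition and a short centrifugation, plates sat for 2 hours at ambient temperature; polarization of fluorescence then indicated loss of VDR binding to peptide SRC2-3.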
Numbers without * were called inactive; ? = inconclusive. On the % scale 0 is the no-effect control and ±100 the full control effect; potency means the concentration at half of the fitted maximal effect.

SMILES	VDR inhibitor
CN(C)C(=S)Oc1ccccc1-c1ccccc1OC(=S)N(C)C	-18%
CC(C)Cn1c(-c2csc(C(C)C)c2)n[nH]c1=S	0%
CC(=O)c1c(N2CCOCC2)nc2ccc(Br)cc2c1-c1ccccc1	0%
CCOCCc1nn2c(=O)cc(COC(=O)COc3ccc(C)c(C)c3)nc2s1	-1%
C=CCNC(=O)NC(=O)CSc1nnc(C(F)(F)F)n1C	11%
CCN(CC)c1nn2c(=O)c(C(=O)NCc3cccc(OC)c3OC)cnc2s1	15%
Cc1cccc([C@H]2[C@@H]3C=CCC[C@@H]3C(=O)N2Cc2ccccc2)c1	?
CC(=O)[C@@]1(O)CC[C@H]2[C@H]3C[C@@H](C)C4=CC(=O)C=C[C@]4(C)[C@@]3(F)[C@@H](O)C[C@]21C	0%
Cn1c(=O)c(C(=O)NNC(=O)c2ccccc2F)c(O)c2ccccc21	7%
COc1ccccc1N1CCN(C(=O)CN2C(=O)c3ccccc3S2(=O)=O)CC1	-6%
Cc1ccc(S(=O)(=O)N(C)CC(=O)Nc2ccc3c(c2)OCO3)cc1	-1%
CCC(C)(C)C1CCC2(CC1)NC(=O)N(CC(=O)N1CCN(C(=O)c3ccco3)CC1)C2=O (stereo not drawn)	-2%
O=C(Cc1cccs1)Nc1ccc(F)c(S(=O)(=O)N2CCOCC2)c1	-16%
COc1ccc(C)c2sc(N(Cc3cccnc3)C(=O)COc3ccccc3)nc12	16%
Cc1ccc(Cl)cc1NC(=O)C1CCCN(S(=O)(=O)c2cccc3cccnc23)C1 (stereo not drawn)	5%
CCOC(=O)C(=CNc1cc(C)nn1C(C)(C)C)C(=O)OCC	4%
O=C(CSc1nnc(Cn2nnc(-c3ccccc3)n2)n1-c1ccccc1)Nc1ccccc1	5%
O=C(COc1ccccc1)Nc1ccccc1N1CCCCC1	-7%
COc1ccc(NC(=O)Nc2nnc(Cc3ccccc3)s2)cc1	-4%
O=C(NCC(O)c1ccccc1)c1cccs1 (stereo not drawn)	-8%
CCOC(=O)N1CCN(C(=O)COc2ccc(S(=O)(=O)Nc3ccc(OCC)cc3)cc2)CC1	4%
O=C(NNC(=O)c1ccccc1Cl)c1ccccc1Cl	1%
CCCCC(=O)Nc1nc(C)c(-c2csc(Nc3ccc(Cl)cc3)n2)s1	-14%
CCN1CCC(N2CCN(c3ccccc3OC)CC2)CC1	-6%
Cc1cc(Cl)ccc1C(=O)C1CCCN(C(=O)c2cscn2)C1 (stereo not drawn)	-7%
C=CCn1c(C)cc(C(=O)Cn2ncc(Cl)c(Cl)c2=O)c1C	-19%
COc1ccc(S(=O)(=O)N2CCCCC2C)cc1 (stereo not drawn)	-13%
COC(=O)c1ccccc1S(=O)(=O)N1CCC(C(=O)NC2CCCCC2C)CC1 (stereo not drawn)	-2%
COc1ccc2nc(N(CCN(C)C)C(=O)c3ccc4ccccc4c3)sc2c1	1%
C=CCNC(=O)C(=O)NCC1CCCN1CC (stereo not drawn)	-5%
CNC(=O)c1ccc(-c2sc3nc(N4CCOCC4)c4c(c3c2N)CCCC4)o1	-1%
O=C(NCC1CC1)c1onc(CSc2nc3ccccc3[nH]2)c1C(=O)NCC1CC1	-26%
COc1ccc2[nH]cc(C(=O)CNc3nc(C)cs3)c2c1	-13%
CCOC(=O)c1[nH]cnc1C(=O)N[C@@H](C)c1ccccc1	-1%
CCN(CC)CC(=O)NCc1cc(-c2ccc(OC)cc2)no1	-1%
CC(C)c1ccc(NC(=O)CSC(C)c2nc3ccccc3c(=O)[nH]2)cc1 (stereo not drawn)	-3%
Cc1ccccc1OCCn1cc(C(=S)N2CCN(C)CC2)c2ccccc21	-13%
OCCNc1nc(Nc2cc(Cl)ccc2OC2CCCC2)nc(N2CCCC2)n1	-2%
COc1ccc(C(=O)NCCS(=O)(=O)N2CCN(C(=O)c3ccco3)CC2)cc1	15%
O=C(NCc1ccc2c(c1)OCO2)Nc1ccc([N+](=O)[O-])cc1	8%
CCOC(=O)CCc1c(C)nc2ncnn2c1C	8%
COc1ccccc1N(CC(=O)NCc1ccccc1)C(=O)CCC(=O)Nc1cc(C)ccn1	8%
Cc1cc(S(=O)(=O)Nc2ccc(C(=O)NCC3(N(C)C)CCCCC3)cc2)ccc1F	-12%
COc1ccc2[nH]cc(CCNc3nc(-c4cccc(NS(C)(=O)=O)c4)nc4ccccc34)c2c1	1%
O=C(NC1CC1)C1=C[C@H](C2CCCCC2)C[C@H](OCc2ccc(CO)cc2)O1	-24%

2 entries drawn at random from the list so far:
SMILES	VDR inhibitor
CCCCC(=O)Nc1nc(C)c(-c2csc(Nc3ccc(Cl)cc3)n2)s1	-14%
O=C(NNC(=O)c1ccccc1Cl)c1ccccc1Cl	1%

The list continues:
SMILES	VDR inhibitor
Cc1ccc(NC(=O)CSc2nnc(-c3ccccc3Br)o2)cc1C	-1%
COc1ccc(S(=O)(=O)NCC2CCCN(C(=O)c3sccc3C)C2)cc1 (stereo not drawn)	6%
COc1ccnc(Oc2ccccc2)c1C(=O)N/C=N/OCc1ccccc1	7%
CCN(C[C@H]1N[C@@](C)(C(=O)OC)[C@H]2C(=O)N(C)C(=O)[C@@H]12)S(=O)(=O)c1ccccc1	-21%
CN(C)N=Nc1nc2c(c(=O)n(C)c(=O)n2C)n1C	-13%
CCC1CCCCN1C(=O)CNCC1CCCO1 (stereo not drawn)	-9%
O=S(=O)(Cc1ccccc1)NCCc1ccc(F)cc1	5%
Cc1ccc(C(NC(=O)C(C)C)c2cc([N+](=O)[O-])c3cccnc3c2O)cc1 (stereo not drawn)	-10%
Cc1ccc(NC(=O)Cn2c(=O)oc3cc(S(=O)(=O)N4CCC(C)CC4)ccc32)cc1C	-18%
CC(=O)c1c(C)nc(-c2ccccc2)n1O	2%
CN1CCN(C2(CNC(=O)c3ccc([N+](=O)[O-])cc3)CCCCC2)CC1	-3%
Cc1ccc(NC(=S)N(CCCN2CCN(C)CC2)Cc2cccs2)cc1C	-1%
O=C1c2ccccc2NC(c2ccccn2)N1NS(=O)(=O)c1ccccc1 (stereo not drawn)	7%
COc1cccc(Sc2ccccc2CN(C)C)c1	12%
COc1ccc(OCCn2cc(/C=N/NC(=O)c3ccncc3)c3ccccc32)cc1	-5%

3 compounds from above, ordered by heavy-atom count, descending:
SMILES	VDR inhibitor
Cc1ccc(C(NC(=O)C(C)C)c2cc([N+](=O)[O-])c3cccnc3c2O)cc1 (stereo not drawn)	-10%
COc1ccc(S(=O)(=O)NCC2CCCN(C(=O)c3sccc3C)C2)cc1 (stereo not drawn)	6%
Cc1ccc(NC(=O)CSc2nnc(-c3ccccc3Br)o2)cc1C	-1%

The list continues.
SMILES	VDR inhibitor
CCOC(=O)N1CCC(NC(=O)CCCN2C(=O)CSc3ncccc32)CC1	2%
C=CC[C@H](CC(=O)NCCO)C(=O)N[C@@H](C)COC(=O)[C@H](CC=C)CC(=O)OC(C)(C)C	3%
COc1ccccc1CC(=O)NCc1csc(-c2cccs2)n1	1%
CC(C)=C1C2C=CC1C(C(=O)Nc1cc(C)ccc1C)C2C(=O)O (stereo not drawn)	7%
COc1ccc(C(=O)Cn2c(Cl)nc3c2c(=O)n(C)c(=O)n3C)cc1	5%
Cc1cc(C)cc(NC(=O)CSc2nnc(-c3ccccc3C)o2)c1	4%
COC(=O)[C@H](CCSC)NC(=O)Nc1ccc(C)cc1C	13%
O=C(Nc1cccc(C(F)(F)F)c1)c1ccc2snnc2c1	7%
Cc1ccc(/C=C/C(=O)O)cc1S(=O)(=O)NCc1cccnc1	14%
CN(c1ccccc1)S(=O)(=O)c1cccc(Cl)c1Cl	15%
Cc1cc(C)c2c(c1)/C(=C/C(=O)c1ccc(Br)s1)C(=O)N2	?
O=C(CCc1nc2ccccc2c(=O)[nH]1)Nc1ccc(F)c([N+](=O)[O-])c1	-8%
COc1ccc(OC)c(NC(=O)C(C)n2c(=O)c(-c3ccccc3NC(C)=O)nc3ccccc32)c1 (stereo not drawn)	0%
CC(=O)Nc1ccc(NC(=O)CSc2nccn2Cc2ccc3c(c2)OCO3)cc1	-10%
COc1cc(S(=O)(=O)N(Cc2ccccn2)Cc2ccco2)ccc1-n1cnnn1	10%

4 entries from above, field by field:
structure: O=C(Nc1cccc(C(F)(F)F)c1)c1ccc2snnc2c1
  VDR inhibitor = 7%

structure: Cc1ccc(/C=C/C(=O)O)cc1S(=O)(=O)NCc1cccnc1
  VDR inhibitor = 14%

structure: CN(c1ccccc1)S(=O)(=O)c1cccc(Cl)c1Cl
  VDR inhibitor = 15%

structure: Cc1cc(C)c2c(c1)/C(=C/C(=O)c1ccc(Br)s1)C(=O)N2
  VDR inhibitor = ?

(further entries)
SMILES	VDR inhibitor
O=C(Cn1cc(C(F)(F)F)ccc1=O)N/N=C/c1ccc(Cl)cc1	12%
CCOc1ccc(S(=O)(=O)c2c(C(=O)c3ccc(CC)cc3)cnc3ccc(C)cc23)cc1	8%
CC(C)CC(c1nnnn1Cc1ccco1)N1CCN(c2cccc(Cl)c2)CC1 (stereo not drawn)	-15%
CCN(C(=O)COC(=O)CCC(=O)c1ccccc1)c1c(N)n(Cc2ccccc2)c(=O)[nH]c1=O	-6%
CC1CCCN1c1ccnc2cc(Cl)ccc12 (stereo not drawn)	-8%
O=C(CSc1ccccc1)N/N=C/c1ccccc1O	-5%
CN1CCN(c2ccccc2NC(=O)COc2ccc(Cl)cc2)CC1	-16%
CCCCCCSc1ccc([C@@H]2[C@H]3C(=O)N(C)C(=O)[C@H]3[C@]3(C(=O)OC)CCCCN23)cc1OC	6%
CCN1CCN(Cc2c(O)c(Cl)cc3c(C)cc(=O)oc23)CC1	-18%
O=C(Nc1ccc(Br)cc1F)N1CCC(CN2CCCC2)CC1	5%
CC(=O)c1sc(NC(=O)CCOc2ccccc2)nc1C	10%
COc1ccc2[nH]c3c(c2c1)CCN1C(=O)N([C@@H](C)C(=O)NCc2ccc(C)cc2)C(=O)[C@]31C	-18%
COc1ccc(Nc2ncnc3c2cnn3-c2ccccc2)cc1OC	0%
O=C(NCCc1ccccc1)c1ccc(CSc2nc3cccnc3n2Cc2ccc(F)cc2)cc1	-2%
O=c1ccnc(Nc2ccc3c(c2)OCCO3)[nH]1	20%
Cc1cc2ncn(C3CC(=O)N(Cc4ccccc4)C3=O)c2cc1C (stereo not drawn)	-4%
CCOc1ccc(NC(=O)CCNC(=O)Cn2cnc3ccccc3c2=O)cc1	17%
CC(C)[C@@H](C(=O)NC1CCN(Cc2ccccc2)CC1)N1C(=O)N2CCc3c([nH]c4ccccc34)[C@@]2(C)C1=O	7%
O=C(N/N=C/c1cc(Br)c(O)c(Br)c1O)c1cccnc1	-5%
COc1ccc(OC)c2c1cc(C(=O)N[C@@H](Cc1ccccc1)C(=O)O)n2C	5%
CCOC(=O)c1ccc(NC(=O)c2ccc(NC(=O)C3CCCO3)cc2)cc1 (stereo not drawn)	-5%
COc1cccc(N2CCN(CC(=O)Nc3nc(C)c(C(=O)N(C)C)s3)CC2)c1	-8%
CCc1cccc(NC(=O)CN(c2ccc(OC)cc2)S(=O)(=O)c2c(C)n[nH]c2C)c1	-1%
CCC(C)NS(=O)(=O)c1ccc(OCC(=O)NCc2ccc(OC)cc2)cc1 (stereo not drawn)	7%
O=C(CCC(=O)Nc1cccnc1)Nc1cccnc1	5%
CC1CC2(NC(=O)NC2=O)C(C)CN1C (stereo not drawn)	23%
COc1ccc2c(ccn2S(=O)(=O)c2ccccc2)c1	-8%
CC(C)OC(=O)c1ccc(N2C(=O)C3CC=CCC3C2=O)cc1 (stereo not drawn)	-4%
O=[N+]([O-])c1ccc(N=Cc2c(O)ccc3ccccc23)cc1	?
CC(=O)Nc1cccc(NC(=O)Cc2nc(-c3ccccc3)sc2-c2ccc(C)cc2)c1	16%
CC1=CC(C)(C)N2C(=O)C3(C(C#N)=C(N)OC4=C3C(=O)CC(C)(C)C4)c3c(C)c(C)cc1c32 (stereo not drawn)	8%
C/C(=N\NC(=O)c1ccncc1)C12CC3CC(CC(C3)C1)C2	-22%
Cc1c(NC(=O)CSc2nc3ccccc3n2C)c(=O)n(-c2ccccc2)n1C	-9%
CCn1nc(C(=O)NNC(=O)c2ccccc2)c2ccccc2c1=O	-8%
O=C(c1cc(Br)c(Br)s1)N1CCc2ccccc2C1	-12%
O=C1N=C(N2CCc3ccccc3C2)S/C1=C\c1ccc(O)cc1	17%
Clc1ccc(CCNc2ncnc3nc[nH]c23)cc1	-8%
N#CCCN(C(=O)COc1ccc(Cl)cc1Cl)c1ccccc1	-9%
CC(NC(=O)CCCC1=NS(=O)(=O)c2ccccc2N1)c1ccccc1 (stereo not drawn)	16%
Nc1sc(-c2ccccc2)c(Cc2ccccc2)c1C(=O)O	14%
O=C(CC1SC2=NCCN2C1=O)Nc1ccc(Cl)cc1 (stereo not drawn)	11%
CCN(C(=O)c1ccc2c(Cl)c3c(nc2c1)CCC3)c1ccc(C)c(C)c1	-19%
CCOC(=O)c1[nH]c2cc3c(cc2c1CCCN1C(=O)c2ccccc2C1=O)OCCO3	12%
Cc1cccc(NC(=O)CSCC(=O)N2CCN(c3cccc(C(F)(F)F)c3)CC2)c1	15%
COc1ccc2c(C)cc(SCC(=O)Nc3nsc(-c4ccc(C(C)(C)C)cc4)n3)nc2c1	6%
Cc1ccc(S(=O)(=O)Nc2nc3ccccc3nc2NCC2CCCO2)c(C)c1 (stereo not drawn)	9%
CCCSc1nc2c(cnn2-c2ccc(C)cc2)c(=O)[nH]1	16%
COc1ccccc1CC1CC(=O)N(c2cccc(Cl)c2C)C1=O (stereo not drawn)	-1%

4 of the compounds above, with the structure last.
VDR inhibitor	smiles
-22%	C/C(=N\NC(=O)c1ccncc1)C12CC3CC(CC(C3)C1)C2
14%	Nc1sc(-c2ccccc2)c(Cc2ccccc2)c1C(=O)O
-9%	N#CCCN(C(=O)COc1ccc(Cl)cc1Cl)c1ccccc1
-8%	Clc1ccc(CCNc2ncnc3nc[nH]c23)cc1

Compound activity from PubChem BioAssay.

Not all compounds are listed; count on the stated rates, not on these rows.
